Source: PubChem
Env fusion inh: inhibitors of HIV Env-mediated cell fusion. HeLa-JRFL Env/CEM21 cell fusion, luciferase. inhibition, % at 12.3 µM. 360,000 compounds, 1.1% hits. AID 651610;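 active = mean replicate inhibition score of at least 50 and every replicate individually at or above 50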;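 note: 0% = plate neutral controls and 100% = maraviroc near 300 nM; one replicate is shown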
Rce1 inhib: blocks yeast Ras-converting enzyme. Q03530. yeast membranes, quenched prenylated peptide cleavage fluorescence. calls only. 290,000 compounds, 0.27% hits. AID 2563;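 active = fall in fluorescence gain of 50% or more versus controls, with final raw signal at or below 3038400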;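 note: plate controls were neutral control wells for no effect and wells lacking membranes for full effect; tested at 10 µM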
Target sequence (Q03530 whole entry, looked up): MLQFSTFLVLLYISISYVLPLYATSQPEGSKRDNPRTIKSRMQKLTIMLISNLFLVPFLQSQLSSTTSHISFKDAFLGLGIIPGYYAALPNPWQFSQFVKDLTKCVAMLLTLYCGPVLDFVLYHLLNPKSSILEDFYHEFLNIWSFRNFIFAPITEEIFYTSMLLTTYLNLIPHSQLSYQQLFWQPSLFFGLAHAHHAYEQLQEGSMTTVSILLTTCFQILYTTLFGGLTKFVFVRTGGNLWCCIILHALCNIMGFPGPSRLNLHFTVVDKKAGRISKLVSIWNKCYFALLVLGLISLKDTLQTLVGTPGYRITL
eIF4H inh: inhibitors of RNA binding by human eIF4H. eIF4H fluorescence polarization binding assay. inhibition, % at 35 µM. 290,000 compounds, 0.94% hits. Q15056;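 active = 50% or more with normal probe brightness, or confirmed in later tests; about a fifth of its hits are not listed in these tables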;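 note: calls also rest on retests at 20 µM and on dose response follow-up; 0% = protein and probe with vehicle and 100% = probe without protein; strong numbers were not always called active; many hits fall short of the cut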
PABP polyA inh: blocks human PABP binding to poly(A) RNA | P11940 | fluorescence polarization | inhibition, % at 35 µM | 290,000 compounds, 1% hits | AID 2014;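 active = 50% or more with normal probe brightness, or confirmed in later tests; about a fifth of its hits are not listed in these tables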;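 note: calls also rest on retests at 20 µM and on dose response follow-up; controls were probe without protein and protein plus probe with vehicle; some compounds called inactive have numbers as strong as hits; many hits fall short of the cut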
Target sequence (P11940 whole entry, looked up): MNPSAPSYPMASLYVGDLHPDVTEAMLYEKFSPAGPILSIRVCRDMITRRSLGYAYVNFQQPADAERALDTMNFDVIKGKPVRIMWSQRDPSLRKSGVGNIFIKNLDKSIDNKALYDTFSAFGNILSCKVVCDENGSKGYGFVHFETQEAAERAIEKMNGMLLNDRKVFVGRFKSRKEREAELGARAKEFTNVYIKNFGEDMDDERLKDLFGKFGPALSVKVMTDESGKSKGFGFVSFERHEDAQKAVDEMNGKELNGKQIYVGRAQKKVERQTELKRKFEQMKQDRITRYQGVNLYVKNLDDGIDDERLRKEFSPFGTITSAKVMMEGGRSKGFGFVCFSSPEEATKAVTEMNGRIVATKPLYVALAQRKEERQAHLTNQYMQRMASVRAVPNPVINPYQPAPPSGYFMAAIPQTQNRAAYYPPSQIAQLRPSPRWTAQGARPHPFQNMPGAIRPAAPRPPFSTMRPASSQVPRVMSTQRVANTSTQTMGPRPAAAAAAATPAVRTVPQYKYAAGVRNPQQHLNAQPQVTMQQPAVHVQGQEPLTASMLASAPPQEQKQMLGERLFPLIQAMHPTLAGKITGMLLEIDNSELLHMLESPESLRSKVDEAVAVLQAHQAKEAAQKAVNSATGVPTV
CSC inhib: blocks cancer stem cells | cancer stem cell-like cells viability, luminescence | inhibition, % at 7.5 µM | 300,000 compounds, 1.1% hits;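 active = mean at 75% or more and at least half the replicates too; tested in HMLE shEcad cells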;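 note: 0% = median of negative and 100% = median of positive control wells; the first replicate is given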
Yeast UUG start: alters start codon recognition fidelity in yeast; S. cerevisiae UUG-firefly luciferase reporter, luminescence/redox ratio; activity score, % at 18.7 µM; 350,000 compounds, 0.13% hits;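 active = replicate mean at a twofold rise or more, about +100% in these data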;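 note: firefly luciferase made from a UUG start codon reports start codon fidelity; reporter light over untreated wells divided by growth signal over untreated wells; some hits fall short of that in this replicate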
MT1-MMP act inh: inhibitors of human MT1-MMP activation. 360,000 compounds, 0.061% hits. GFP/RFP ratio change, % at 20 µM. AID 651647. HT1080 RFP-PRO-GFP cells, GFP/RFP ratio fluorescence, overnight; percent of plate control window, DMSO zero. P50281;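 active = GFP/RFP ratio change of at least 30% with cell ATP level not reduced by more than half and red fluorescence within 50% of control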; note: strong numbers were not always called active
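Assay system – RFP-PRO-GFP reporter HT1080 cells · Compound dosing – single dose of 20 µM compound, 1% DMSO final · Incubation – overnight compound exposure at 37 °C · Measure – GFP/RFP fluorescence ratio · Benchmarks – DMSO wells and RFP-L50D-GFP cells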
eIF4H inh retest: further read-out of eIF4H inh, marked with its call; inhibition, %; compound at 20 µM; confirmation average;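 mean of two retest wells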
PABP polyA inh retest: recorded beside PABP polyA inh, whose call it bears; inhibition, %; compound at 20 µM; confirmation repeats;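 mean of two retest wells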
MT1-MMP act inh RFP: second read-out of MT1-MMP act inh, no call of its own (marks repeat the call); RFP signal change, %; measured here: RFP expression control read;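 0 = vehicle wells; hits needed this value within 50% of zero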
Starred values were filed as active, the others as inactive; i = inactive; . = no result given; & = joins results of further samples; [ ] = remark or other dose.

SMILES | Env fusion inh | Rce1 inhib | eIF4H inh | PABP polyA inh | CSC inhib | Yeast UUG start | MT1-MMP act inh | MT1-MMP act inh RFP | others
O=C(O)CCCCCNC(=O)CCn1nnc2ccccc2c1=O | 21 | i | -8 | -1 | -2 | -7 | 2 | 4
COc1ccc(CCNC(=O)C2CCC(=O)N(C3CC3)C2)c(OC)c1 (configuration not stated) | 11 | i | -7 | 7 | -9 | -15 | 2 | 1
O=C(C1=C[C@@H](C2CCCCC2)C[C@@H](OCCCCO)O1)N1CCN(Cc2ccccc2)CC1 | 5[16.7 µM] | i | 11 | 6 | -3 | -7&-1 | 0 | -1
COCCCNC(=O)c1cccc(S(=O)(=O)N2CC3(C)CC2CC(C)(C)C3)c1 (configuration not stated) | -1 | i | . | . | 1 | 21 | -2 | -5
COc1ccccc1NC(=O)NC1CCS(=O)(=O)C1 (configuration not stated) | -2 | i | 3 | 3 | -14 | -12 | -1 | 2
CCCCN(C)C(=S)Nc1ccc2nc3n(c(=O)c2c1)CCCCC3 | 14 | i | -6 | 2 | -6 | . | 4 | -3
CCOc1ccc(OCCSc2nc3ccccc3[nH]2)cc1 | . | i | 7 | -7 | -12 | -25 | -9 | -14
COc1ccc(OC)c(S(=O)(=O)n2nc(-c3ccccc3)cc2N)c1 | 16 | i | -11 | -3 | 3 | -17 | -1 | 1
COc1ccc(SC[C@H](Cc2ccccc2)N2CCN(C)CCC2=O)cc1 | -2 | i | 0 | -14 | 6 | 2 | -2 | 2
O=[N+]([O-])c1ccc(N2CCN(c3nc(-c4ccc(Cl)cc4)cs3)CC2)cc1 | 16 | i | 0 | -3 | -13 | -9 | -1 | -7
CC1C(=O)Nc2ccccc2N1C(=O)c1ccc(F)cc1 (configuration not stated) | 21 | i | -2 | 2 | -19 | -11 | 3 | 2
COc1ccccc1Nc1c([N+](=O)[O-])cncc1[N+](=O)[O-] | 3 | i | 4 | -9 | -14 | . | -2 | 4
C=CCn1c(Cc2ccc(OC)cc2)nnc1SCc1nc2ccccc2c(=O)[nH]1 | . | i | 6 | 0 | -1 | -3 | 6 | 1
CC(=O)Nc1sc2c(c1C(N)=O)CCC2 | . | i | -8 | 4 | -13 | 5 | -3 | -6
O=C(Nc1cccc(Oc2c(F)c(F)c(F)c(F)c2F)c1)N1C[C@@H]2C[C@@H](C1)c1cccc(=O)n1C2 | . | i | 1 | -7 | -6 | -6 | 2 | 15

Sorted by SMILES length (lowest first): part of the list above.
SMILES | Env fusion inh | Rce1 inhib | eIF4H inh | PABP polyA inh | CSC inhib | Yeast UUG start | MT1-MMP act inh | MT1-MMP act inh RFP | others
CCOc1ccc(OCCSc2nc3ccccc3[nH]2)cc1 | . | i | 7 | -7 | -12 | -25 | -9 | -14
O=C(O)CCCCCNC(=O)CCn1nnc2ccccc2c1=O | 21 | i | -8 | -1 | -2 | -7 | 2 | 4
COc1ccc(CCNC(=O)C2CCC(=O)N(C3CC3)C2)c(OC)c1 (configuration not stated) | 11 | i | -7 | 7 | -9 | -15 | 2 | 1
C=CCn1c(Cc2ccc(OC)cc2)nnc1SCc1nc2ccccc2c(=O)[nH]1 | . | i | 6 | 0 | -1 | -3 | 6 | 1

The main list resumes; the 4 compounds before the break are reprinted first.
SMILES | Env fusion inh | Rce1 inhib | eIF4H inh | PABP polyA inh | CSC inhib | Yeast UUG start | MT1-MMP act inh | MT1-MMP act inh RFP | others
COc1ccccc1Nc1c([N+](=O)[O-])cncc1[N+](=O)[O-] | 3 | i | 4 | -9 | -14 | . | -2 | 4
C=CCn1c(Cc2ccc(OC)cc2)nnc1SCc1nc2ccccc2c(=O)[nH]1 | . | i | 6 | 0 | -1 | -3 | 6 | 1
CC(=O)Nc1sc2c(c1C(N)=O)CCC2 | . | i | -8 | 4 | -13 | 5 | -3 | -6
O=C(Nc1cccc(Oc2c(F)c(F)c(F)c(F)c2F)c1)N1C[C@@H]2C[C@@H](C1)c1cccc(=O)n1C2 | . | i | 1 | -7 | -6 | -6 | 2 | 15
O=C(c1cc(F)ccc1F)C1CCCN(Cc2cccn2-c2ccccn2)C1 (configuration not stated) | 3 | i | 30 | 22 | 10 | -18 | 6 | 5
COCCNC(=O)c1cn(C)c2ccc(S(=O)(=O)N(C)C3CCCCC3)cc2c1=O | -13 | . | 3 | -3 | 2 | 18 | -5 | -1
COc1cc(OC)c(/C=N/NC(=O)COc2cccc3cccnc23)c(OC)c1 | 5 | i | -3 | -4 | -5 | . | 1 | -1
CC(C)(C)c1nc(NC(=O)Nc2ccccc2)sc1Br | -53 | i | 3 | -12 | 4 | . | -16 | -26
Cc1cccc(Nc2nnc(SCC(=O)NC3CCCc4ccccc43)s2)c1 (configuration not stated) | . | i | -10 | -11 | 3 | -12 | 3 | -15
COCCn1c(=S)[nH]c2cc(C(=O)NCC3CCCO3)ccc2c1=O (configuration not stated) | . | i | -6 | 6 | -9 | . | -6 | -5
CCC(C)C(NC(=O)c1ccccc1NC(=O)c1ccco1)C(=O)NC1CCCCC1 (configuration not stated) | . | i | -5 | -2 | 0 | -15 | -4 | -7
NS(=O)(=O)c1ccc(CNC(=O)CCC2CCCCC2)cc1 | . | i | -5 | -18 | 8 | -10 | 1 | 2
COCCC(=O)N1CCC(n2nccc2NC(=O)CCc2ccccc2)CC1 | 18 | i | -17 | -8 | -20 | -8 | -2 | 1
COc1ccc(C2NC(=O)CCC2[N+](=O)[O-])cc1 (configuration not stated) | 6 | i | 0 | 10 | -4 | -3 | -2 | 4
CC1CCc2c(c3ccccc3n2C(=O)CCl)C1 (configuration not stated) | 5 | i | -4 | -7 | 1 | -7 | 1 | 2
CCc1c(C)nc2ncnn2c1Nc1ccc(C(C)=O)cc1 | -456 | i | 5 | -2 | . | -26 | 0 | 0
CCOC1CCc2c(C)nc(N)nc2S1 (configuration not stated) | -6 | i | 5 | -6 | -5 | . | 2 | 3
NC(=O)c1ccccc1NS(=O)(=O)Cc1ccc(Cl)cc1 | . | i | -8 | -4 | -8 | -7 | 4 | 1
O=C(CCNC(=O)c1ccccc1Cl)Nc1cc(S(=O)(=O)N2CCOCC2)ccc1N1CCOCC1 | 15 | i | -15 | 3 | -15 | 7 | 0 | 3
Cc1ccc(Nc2ncnc3c2nnn3Cc2ccccc2)cc1 | -7 | i | 4 | 3 | 20 | 9 | 0 | -8
CC(=O)NN1C(=O)c2ccccc2NC1c1ccccc1O (configuration not stated) | 3 | i | -4 | 19 | . | -19 | -1 | 0
CCCC(=O)C1CCN(Cc2ccccc2)CC1 | 4 | i | 7.7* | 54 | -10 | -23 | -5 | 1 | eIF4H inh retest=90*;PABP polyA inh retest=23
CC(C)C(CCN1C(=O)CCC1=O)C1CCOC(C)(C)C1 (configuration not stated) | -38 | i | -2 | -5 | -4 | -25 | -3 | 2
Cc1cc(C(=O)NC2CC2)c2ccccc2n1 | 0 | i | -10 | 6 | -15 | . | 4 | 3
CCn1c(=O)n(CC)c2cc(S(=O)(=O)N3CCCCC3)c(C)cc21 | 19 | i | -6 | 0 | . | -3 | 9 | 7
COc1ccccc1Nc1nn2c(=O)c3ccc(C(=O)N4CCC(C)CC4)cc3nc2s1 | 13 | i | -13 | 8 | -3 | 4 | 2 | -2
Cc1cccc(N2CCN(C(=O)CCNS(=O)(=O)c3ccc4c(c3)oc(=O)n4C)CC2C)c1 (configuration not stated) | 13 | i | 5 | 8 | -5 | -11 | 0 | -3
CN(C(=O)COC(=O)c1ccccc1SCC(=O)N1CCCC1)c1ccccc1 | -16 | i | -5 | -9 | 0 | -6 | -3 | 2
CC1(C)CC(NC(=O)c2ccc(Cl)c(S(=O)(=O)N(Cc3ccccc3)c3ccccc3)c2)CC(C)(C)N1 | 7 | i | . | . | -4 | 13 | 0 | -4
CC(C)C(=O)Nc1cc(S(=O)(=O)Nc2ccc(Cl)cc2)ccc1Cl | -29 | i | -7 | -7 | 4 | . | 8 | -4
CCOc1cc(C2C(C(=O)c3ccc(C)o3)=C(O)C(=O)N2CCc2ccccc2)ccc1O (configuration not stated) | . | i | -3 | 4 | -19 | -21 | -5 | -1
Cc1ccc(N(C(=O)CNC(=O)c2ccco2)C(C(=O)NC2CCCC2)c2ccncc2)cc1 (configuration not stated) | 5 | i | -2 | 10 | -10 | 4 | -1 | 2
NC(=O)c1nsc(C(=O)N(Cc2cccnc2)C(C(=O)NC2CCCCC2)c2ccc(F)cc2)c1N (configuration not stated) | -9 | i | -12 | 15 | . | -2 | -3 | 0
Cn1c(=O)c(C(=O)COc2ccc(F)cc2Cl)c(N)n(Cc2ccccc2)c1=O | -3 | i | -9 | -3 | -6 | -5 | -4 | -7
O=C(Cn1ccc2ccccc2c1=O)NCCC(=O)N1CCN(C(=O)c2ccco2)CC1 | -68 | . | . | . | . | -15 | 8 | 5
O=C(CSc1ccccc1)Nc1ccccc1C(=O)N1CCCC1 | 12 | i | -2 | 5 | 3 | -16 | 1 | 4
Cc1nc2nc(-c3ccc(Cl)cc3)[nH]n2c(=O)c1Cc1ccccc1 | . | i | -5 | 9 | 0 | -12 | 0 | -4
c1ccc(CNCCC(Cc2ccccc2)c2ccco2)cc1 (configuration not stated) | -300 | i | -6 | -6 | 31 | 0 | -2 | 0
CCn1c(SCC(=O)NCc2ccco2)nc2c1c(=O)n(C)c(=O)n2C | -80 | i | 1 | 6 | -11 | -15 | -4 | -1
CCC1(C)Cc2c(sc3nc(SC)nc(NCCN(C)C)c23)CO1 (configuration not stated) | -54 | i | 5 | -13 | -1 | -13 | 8 | 0
COc1ccccc1CN1CCN(S(=O)(=O)c2ccccc2)CC1 | 30 | i | -6 | 16 | -10 | 1 | -4 | 4
O=C(NC1CC1)C1=C[C@@H](c2ccccc2)C[C@@H](OCc2ccc(CO)cc2)O1 | -1 | i | -11 | -3 | -1 | -13 | -3 | -2
Cc1cccc(CCN2C(N(C)C)=NC[C@@H]2CC(C)C)c1 | -19 | . | . | . | -18 | -7 | -2 | 3
Nc1nonc1OCCc1ccccc1 | . | i | -8 | -2 | -9 | -1 | 5 | 5
CCN(CC)S(=O)(=O)c1ccc(N2C(=O)CC2(/C=C/c2ccccc2)C(=O)NC2CCCC2)cc1 (configuration not stated) | -11 | i | -14 | -10 | 2 | -9 | -1 | -1
N=C(N)Sc1nc(N2CCCCC2)nc(N2CCCCC2)n1 | 2 | i | -1 | 12 | -10 | . | 10 | 6
CC1(C)CC(=O)C/C(=N\NC(=O)C2CC2c2ccccc2)C1 (configuration not stated) | 0 | i | -4 | -5 | -4 | . | 2 | 1
Cc1nc2ccccc2nc1OCc1ccccc1 | 5 | i | 0 | -11 | -6 | -5 | -2 | 0
Cc1ccc(CN2CCN(Cc3cc4ccccc4o3)CC2CCO)cc1 (configuration not stated) | 0 | i | -11 | -8 | -2 | -11 | -1 | -3
COc1ccc(NC(=S)N/C(=N/CS(=O)(=O)c2ccccc2)c2ccccc2)cc1 | -88 | i | -10 | -2 | -2 | -39 | 2 | 1
Clc1cccc(-c2noc3ncnc(Nc4ccc5c(c4)OCO5)c23)c1 | 34 | i | -6 | -11 | -7 | 7 | -2 | -4
CC1(C)CC(=O)c2cc(C(=O)NCc3ccco3)c(=O)n(-c3ccccc3)c2C1 | . | i | -8 | -2 | . | -15 | -1 | 2
COc1cccc2cc(C(=O)NCc3ccc(Cl)cc3)c(=O)oc12 | -1 | i | 1 | 12 | 2 | -14 | 4 | 3

These rows are one share of the data; count on the stated rates, not on these rows.
